# From PubChem BioAssay
# VDR inh = inhibitors of human vitamin D receptor; VDR-SRC2-3 peptide fluorescence polarization, 2 h; 400,000 compounds, 0.93% hits; Potency, µM, for inactives: max response, negative = inhibition, usual class: inhibitors; P11473; active means well fitted inhibition curve with a large enough effect; inconclusive means small, poorly fitted or top-dose-only effect, or another doubt; inactive means no such curve, though single readings can be large or run the other way; further: series mostly up to about 120 µM
# Target sequence (P11473 whole entry, looked up): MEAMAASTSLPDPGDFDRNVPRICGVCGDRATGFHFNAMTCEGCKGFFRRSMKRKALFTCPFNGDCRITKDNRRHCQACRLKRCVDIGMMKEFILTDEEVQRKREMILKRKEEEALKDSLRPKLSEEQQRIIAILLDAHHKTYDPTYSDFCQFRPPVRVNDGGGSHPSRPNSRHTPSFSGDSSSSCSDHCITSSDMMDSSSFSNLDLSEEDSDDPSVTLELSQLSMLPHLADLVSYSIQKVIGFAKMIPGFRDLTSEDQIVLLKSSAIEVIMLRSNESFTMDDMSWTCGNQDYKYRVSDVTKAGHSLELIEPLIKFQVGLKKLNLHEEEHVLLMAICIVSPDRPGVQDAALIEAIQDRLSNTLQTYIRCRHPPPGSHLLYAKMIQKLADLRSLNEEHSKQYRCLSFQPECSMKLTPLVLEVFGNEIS
#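 Compounds are added to VDR with labelled SRC2-3 coactivator peptide and held 2 h at room temperature. Inhibition of the VDR–peptide interaction is then read as a change in fluorescence polarization.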
# Starred values were filed as active, the others as inactive; ? = inconclusive; & = joins results of further samples. On the % scale 0 is the no-effect control and ±100 the full control effect; potency means the concentration at half of the fitted maximal effect.
cpd | Molecule | VDR inh
1 | Cc1ccc(-c2nc(S(=O)(=O)c3ccc(C)cc3)c(N(C)C)o2)cc1 | ?
2 | COc1ccc(CNC(=O)NCc2ccc(OC)c(OC)c2)cc1OC | 3.9%
3 | CC(C)N1CCc2c(sc(NC(=O)Cc3ccccc3)c2C(N)=O)C1 | -9.9%
4 | NC(=O)c1ccsc1NC(=O)COC(=O)C1=NNC(=O)CC1 | ?
5 | C=CCSc1nc2sc(C)c(C)c2c(=O)n1CC=C | 0.7%
6 | O=C(c1cccn1-c1nnc(N2CCCC2)s1)N1CCN(c2ccccc2)CC1 | 2.4%
7 | CN(c1ccc(C(=O)Nc2cccc(O)c2)cc1)S(=O)(=O)c1ccccc1 | -10.6%
8 | CCOc1ccc(-c2noc(CSc3nnc(Cc4ccccc4)n3-c3cccc(C)c3)n2)cc1 | 8.5%
9 | Cc1csc(SCC(=O)N(C)C2CCS(=O)(=O)C2)n1 (configuration not stated) | -13.4%
10 | O=C(NCc1ccc2c(c1)CCN2C(=O)c1ccc(F)cc1)c1c(F)cccc1F | 2.5%
11 | CC(=O)Nc1ccc(NS(=O)(=O)c2ccc(Cl)s2)cc1 | 2.1%&-5.8%
12 | NC(=O)c1ccc(C(=O)c2ccc([N+](=O)[O-])cc2)cc1 | -15.5%
13 | CCn1cc(/C=C(\NC(=O)c2ccccc2)C(=O)N2CCOCC2)c2ccccc21 | 2.4%
14 | Oc1ccccc1Nc1ncnc2c1oc1ccccc12 | 1.4%
15 | CCOC(=O)C1CCCN(S(=O)(=O)c2ccc3c(c2)N(C)C(=O)CC(=O)N3C)C1 (configuration not stated) | 4.6%&1.7%
16 | COc1cc2c(cc1O)CCN[C@@]21CS[C@H]2c3c(OC(C)=O)c(C)c4c(c3C(COC1=O)N1C2C2c3c(cc(C)c(OC)c3O)CC([C@@H]1O)N2C)OCO4 (some centres not stated) | ?
17 | O=S(OCCN1CCCC1)C(c1ccccc1)c1ccccc1 (configuration not stated) | -15.4%
18 | COc1ccc(C(=O)NCCCN=C2NS(=O)(=O)c3ccccc32)cc1 | -16.6%
19 | COc1ccc(N2CCN(C(=O)c3cccn4c(=O)c5ccc(Cl)cc5nc34)CC2)cc1 | -4.2%
20 | Cc1cccc(C(c2sc3nc(-c4ccco4)nn3c2O)N2CCOCC2)c1 (configuration not stated) | -0.1%
21 | COCCCN(C(=O)c1cccnc1SC)c1c(N)n(Cc2ccccc2)c(=O)[nH]c1=O | -11.5%
22 | Cc1cccc(S(=O)(=O)Nc2nc3ccccc3nc2NCC2CCCO2)c1 (configuration not stated) | -9.4%
23 | Cc1cc(C)nc(SCC(=O)OC(C)C(=O)Nc2ccccc2)n1 (configuration not stated) | -16.5%
24 | O=C(Cc1ccsc1)Nc1ccc2c(c1)OCO2 | -7.5%
25 | CC(=O)N1c2ccc(S(=O)(=O)N3CCC(C(=O)NC4CCCCC4)CC3)cc2CC1C (configuration not stated) | -21.5%
26 | Cc1cc(C)nc(SCc2cc(=O)c(OC(=O)c3ccc(Cl)c([N+](=O)[O-])c3)co2)n1 | ?
27 | CCCCN(CC)CCNC(=O)C1c2cc(OC)c(OC)cc2C(=O)N2CCc3ccccc3C12 (configuration not stated) | 5.2%
28 | Cc1cccc(N(CC(N)=O)C2SC(=O)N(c3ccccc3)C2=O)c1 (configuration not stated) | -18.1%
29 | COc1ccccc1N1CCN(C(=O)c2cc3c(s2)CCC3)CC1 | 7.7%
30 | O=C(NCCCc1ccccc1)C(=O)c1c[nH]c2ccccc12 | 2.6%
31 | C=CCNC(=S)NNC(=O)c1cc(O)ccc1O | 23.6%
32 | COc1ccc2c(c1)c(CC(=O)OCC(=O)O)c(C)n2C(=O)c1ccc(Cl)cc1 | -18.4%&-1.4%
33 | Cc1ccc(C(=O)CCC(=O)OCC(=O)N2c3ccccc3NC(=O)C2(C)C)cc1 | 3.3%
34 | COc1ccc(C(=O)CSc2cc(C)nc3nc(C)nn23)cc1OC | -2.5%
35 | COc1ccc(C(=O)Nc2ccc3nc4c(c(Nc5ccc(OC)c(OC)c5)c3c2)CCCC4)c(OC)c1 | -106.8%
36 | CCCCC[n+]1ccn(-c2nc3ccccc3nc2[N-]S(=O)(=O)c2ccc(C)cc2)c1 | -3.6%
37 | CC(Oc1cccc(Cl)c1)C(=O)Nc1ccc([N+](=O)[O-])cn1 (configuration not stated) | -1.3%
38 | COC(=O)c1ccc(CSc2ncnc3c2sc2nc(N4CCOCC4)c4c(c23)CCCC4)o1 | -8.3%
39 | CC1(C)CC(=O)C=C(c2cccc(Br)c2)C1 | ?
40 | CCOC(=O)N1CCN(C(=O)Nc2ccc3nc(C)c(C)nc3c2)CC1 | 23.3%
41 | O=C(c1ccc([N+](=O)[O-])cc1)N1CCSC1c1ccccc1Cl (configuration not stated) | 5.8%
42 | Cc1cccc(N2C(=O)c3ccc(C(=O)Nc4c[nH]c(=O)[nH]c4=O)cc3C2=O)c1 | -7.2%
43 | Nc1cc(OCC(F)(F)F)cc(OCC(F)(F)F)c1 | -20.7%
44 | O=C(CSc1nc2ccccc2[nH]1)Nc1ccc2c(c1)CCC2 | -19.9%
45 | Cc1ccc(S(=O)(=O)/N=C(\c2ccc(F)cc2)n2c(C)nc3ccccc32)cc1 | 8.5%
46 | O=S(=O)(c1ccc(-n2cnnn2)cc1)N1CCN(c2cccc(Cl)c2)CC1 | 3.9%
47 | CCC(C(=O)NC1CCCC1)N(Cc1cccs1)C(=O)Cn1nnc(-c2ccc(OC)c(OC)c2)n1 (configuration not stated) | 1.6%
48 | CCC1=Nc2cc(C(=O)NCCN3CCOCC3)ccc2Sc2ccc(C)cc21 | 0.2%
49 | CC(C)N(C(=O)COC(=O)[C@@H]1CC(O)CN1S(=O)(=O)c1ccc(C(C)(C)C)cc1)C(C)C (some centres not stated) | -19.3%
50 | CCOc1ccccc1C(=O)OCC(=O)Nc1cccc(S(=O)(=O)NC2=NCCCCC2)c1 | -6.8%
51 | Cn1ncc(Cl)c1C(=O)N1CCN(S(=O)(=O)c2cccs2)CC1 | -16.1%
52 | C/C(=N\NC(=O)c1ccc(N2CCCC2=O)cc1)c1ccncc1 | -6.8%
53 | CCOC(=O)c1ccc(NS(=O)(=O)c2c(C)n[nH]c2C)cc1 | -0.9%
54 | NC(=O)c1ncn([C@@H]2O[C@H](CNS(=O)(=O)c3cc(S(=O)(=O)c4ccccc4)cs3)[C@@H](O)[C@H]2O)n1 | -12.7%
55 | Cn1cc(SCC(=O)NCc2ccc(F)cc2)c2ccccc21 | -7.9%
56 | COCCNC(=O)CSc1nc(-c2ccc(F)cc2)[nH]c1-c1ccc(Cl)cc1 | -1.2%
57 | CCc1ccc2nc3c(c(C(=O)O)c2c1)CCC3 | -11.9%
58 | CC(=O)Cc1cc(=O)c2c(C)cc(O)c(C3OC(CO)C(O)C(O)C3O)c2o1 (configuration not stated) | -4.5%
59 | Cc1nc(SCc2ccc(Cl)cc2)c(C#N)c(C)c1Cl | -19.5%
60 | Cc1nc2ccccc2n1S(=O)(=O)c1ccc(S(=O)(=O)N2CCCCCC2)cc1 | 5.7%

# The results go on.
cpd | Molecule | VDR inh
61 | COc1ccc(OC)c(NC(=O)C2=C(C)C(=O)OC23CCN(C(C)C)CC3)c1 | 10.1%
62 | CCOc1ccccc1N1CCN(CC(=O)Nc2ccnn2C2CCCC2)CC1 | 7.3%
63 | Cc1cccc(N=[N+]([O-])c2cccc(C)n2)n1 | -13.0%
64 | Cc1cccc(-c2cc(C(=O)N/N=C/c3cccnc3)c3ccccc3n2)c1 | -9.0%
65 | Cc1ccc(S(=O)(=O)N[C@H](C(=O)N2CCC3(O)CCCCC3C2)c2ccccc2)cc1 (some centres not stated) | -5.6%
66 | CC(=O)n1c2ccccc2c2ccccc21 | 6.2%
67 | CCC(C)NC(=O)CSc1nc2ccsc2c(=O)n1NC(=O)c1ccccc1 (configuration not stated) | 1.2%
68 | CNC(=O)CCN(Cc1ccco1)S(=O)(=O)c1ccc(OC)c(OC)c1 | -2.3%
69 | COc1cccc(-c2ccc3ncnc(NCc4cccnc4)c3c2)c1 | -10.2%&-19.1%
70 | COC(=O)c1ccccc1N1C(=O)[C@@H]2C(c3ccc(Br)cc3)=NO[C@@H]2C1=O | -14.7%
71 | Cc1ccc2oc(=O)n(CCOc3ccccc3C)c2c1 | 3.2%
72 | CCOc1ncccc1C(=O)OCC(=O)Nc1cc(S(=O)(=O)N(CC)CC)ccc1C | 23.2%
73 | CCSc1nnc(NC(=O)C(C)C)s1 | -2.4%
74 | O=C1NC(c2cccc([N+](=O)[O-])c2)Oc2ccccc21 (configuration not stated) | 18.6%
75 | CCOC(=O)c1cc(C)[nH]c(=O)c1C#N | -9.0%
76 | CCOC(=O)N1CCN(C(=O)C(NC(=O)c2ccco2)C(C)C)CC1 (configuration not stated) | 11.2%
77 | OCCN(CCO)c1ncnc2c1cnn2-c1ccc(F)cc1 | -2.9%
78 | CN(C)c1cccc(N=C2C=C(N3CCOCC3)CC(C)(C)C2)c1 | 1.5%
79 | COc1ccc(O)c(C(=O)c2cnn(C(=O)c3ccc(C)cc3)c2)c1 | -0.6%
80 | CCN(CC)c1ccc(-c2nn3c(-c4cccnc4)nnc3s2)cc1 | -11.0%
81 | CC1(C)CC(=O)c2c(-c3cccs3)n[nH]c2C1 | 12.6%
82 | Cc1ccc(-c2nc3ccc(C(=O)O)cc3nc2-c2ccc(C)cc2)cc1 | -6.3%
83 | CCOC(=O)c1cnc2c(c(C)nn2C)c1Oc1ccccc1F | -0.4%
84 | COc1cc(C2Nc3ccccc3C(=O)N2c2ccc3c(c2)OCCO3)ccc1OCC(C)C (configuration not stated) | 7.2%

# (more compounds)
entry	Compound	VDR inh
85	CCCN(CCC)CCCNC(=O)c1cn(C)c2ccc(S(=O)(=O)N(C)C3CCCCC3)cc2c1=O	5.1%
86	Clc1nc2nc3n(c2nc1Cl)CCC3	17.9%
87	O=C(O)c1ccc(-c2ccc(/C=N/Nc3ccc([N+](=O)[O-])cc3)o2)cc1	2.0%
88	COc1ccc(C2CC(=O)Oc3cc(O)ccc32)cc1 (configuration not stated)	-12.1%&-2.9%
89	COc1ccc(Cn2c(CO)cnc2SCc2ccccc2)cc1	6.2%
90	CN(c1ccccc1)S(=O)(=O)c1cccc(NC(=O)CN2CCc3ccccc3C2)c1	-20.5%
91	CCOC(=O)C1(Cc2cccc(F)c2)CCN(C(=O)c2ccoc2C)CC1	-17.8%
92	COC(=O)c1nn(-c2ccccc2)c(Sc2ccccc2)c1/C=N/O	-1.0%
93	CC1CCN(CCOCCOc2ccccc2-c2ccccc2)CC1	-5.6%
94	O=C(N/N=C/c1cccc(C(F)(F)F)c1)c1ccc(O)cc1	0.6%
95	O=C(NCC1CCCO1)C1CCN(c2ccc(S(=O)(=O)N3CCCC3)cc2)CC1 (configuration not stated)	16.6%
96	COc1ccc(-c2cccc(NC(=O)c3ccc4c(c3)OCO4)c2)nn1	-9.3%
97	Cn1c(=O)oc2cc(S(=O)(=O)N3CCc4ccccc43)ccc21	-1.4%
98	CO[C@@]12C[C@@H](COC(=O)c3cncc(Br)c3)CN(C)[C@H]1Cc1cn(C)c3cccc2c13	2.3%
99	CCOc1ccc(C(=O)Nc2cccc3ncccc23)cc1Br	-29.9%
100	Cc1cccc(NC(=O)c2sc3nc4c(cc3c2N)CCCCCC4)c1C	-5.3%
101	COC(=O)c1ccc(N2C(=O)c3cc(N4CCOCC4)c([N+](=O)[O-])cc3C2=O)cc1	-18.9%
102	C=CC[C@H](CC(=O)NCCO)C(=O)NC[C@@H](OC(=O)[C@H](CC=C)CC(=O)OC(C)(C)C)c1ccccc1	-3.4%
103	CCn1nc(NC(=O)c2ccncc2)c2cc3ccccc3nc21	17.1%
104	COc1ccc(CCNC(=O)CCC(=O)n2ncc3ccc(Cl)cc32)cc1OC	-1.3%
105	Cc1c(Cl)cccc1NC(=S)NC1CCN(C(C)C)CC1	-23.7%
106	COC(=O)c1cc(-c2ccc(NC(C)=O)cc2)nc2ccccc12	-11.6%
107	CN(c1ccccc1C(=O)O)S(=O)(=O)c1ccc2[nH]c(=O)[nH]c2c1	-21.9%
108	N#CC1=C(Nc2ccccc2Cl)SC(c2ccccc2O)NC1=O (configuration not stated)	20µM*
109	Cn1c(=O)[nH]c(=O)c2c1nc(N/N=C/C(Br)=C/c1ccccc1)n2CCO	-17.8%
110	CC(C)N1CCC(N2CCN(CCCc3ccccc3)CC2CCO)CC1 (configuration not stated)	-12.6%
111	Cc1ccccc1-c1nsc(SCC(=O)c2ccc(Cl)cc2)n1	-21.0%
112	O=C(NCCS(=O)(=O)N1CCN(c2ccccc2F)CC1)c1cccc(Br)c1	-13.7%
113	O=C(NC1CC(=O)N(c2cccc(F)c2)C1)c1ccc(Br)o1 (configuration not stated)	15.8%
114	COCCNC(=O)CCn1nc(-c2ccc(Cl)cc2)ccc1=O	9.7%
115	Cc1cccc2[nH]c(CN(C)C(=O)C3CCC(=O)N(CCc4ccccc4)C3)nc12 (configuration not stated)	-2.3%
116	O=[N+]([O-])c1cccc(S(=O)(=O)N2CN(c3ccc(Br)cc3)c3nc4ccccc4nc32)c1	-25.0%
117	Cc1onc(-c2ccccc2)c1C(=O)N1CCOC12CCN(c1cccc(F)n1)CC2	-11.7%
118	Cc1onc(-c2c(F)cccc2Cl)c1C(=O)Nc1sc2c(c1C(N)=O)CCC2	14.2%
119	C=CCn1c(CNC(=O)c2cccs2)nnc1SCC(=O)Nc1ccc(C(=O)O)cc1	-14.3%
120	CCN(CC(=O)Nc1ccccc1C(F)(F)F)C(=O)c1ccc(=O)n(Cc2ccccc2)n1	-1.0%
121	CCn1cc(CCC(=O)NC(C)c2ccccc2)c2ccccc21 (configuration not stated)	-1.6%
122	CCN(CC(=O)Nc1cccc(F)c1)Cc1nc2ccccc2c(=O)[nH]1	-2.3%
123	COc1cc(Cl)c(C)cc1NC(=O)CC1CCCC1	-10.3%
124	Cc1cc(C)cc(NC(=O)CSc2nc3ccccc3nc2N2CCCCC2)c1	-19.2%

# An excerpt; the hit share may differ from the screen's.
